Screens (PubChem)
UUG fidelity: modulators of yeast start codon fidelity, primary screen, whole organism, S. cerevisiae, single point, plate reader | 350,000 compounds, 0.13% hits | AID 602363, 2012 | activity score, % at 18.7 µM | S. cerevisiae UUG-firefly luciferase reporter, luminescence/redox ratio;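 active means replicate mean at a twofold rise or more, about +100% in these data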;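 further: firefly luciferase made from a UUG start codon reports start codon fidelity; reporter light over untreated wells divided by growth signal over untreated wells; some hits fall short of that in this replicate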
eIF4H inh: human eIF4H binding inhibitors, primary screen, translation initiation inhibitor project, biochemical, uHTS, fluorescence polarization. Eukaryotic translation initiation factor 4H (Homo sapiens), Q15056. eIF4H fluorescence polarization binding assay. inhibition, % at 35 µM. 290,000 compounds, 0.94% hits;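 active means 50% or more with normal probe brightness, or confirmed in later tests; inconclusive means above 50% with abnormal brightness, or retests that disagree; inactive means below 50% or failed in later tests; about a fifth of its hits are not listed in these tables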;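 further: calls also rest on retests at 20 µM and on dose response follow-up; 0% = protein and probe with vehicle and 100% = probe without protein; strong numbers were not always called active; many hits fall short of the cut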
PABP FP inh: PABP poly(A) RNA binding inhibitors, primary screen, biochemical, fluorescence polarization, uHTS; inhibition, % at 35 µM; AID 2014, 2009; 290,000 compounds, 1% hits; Polyadenylate-binding protein 1 (Homo sapiens), P11940;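 active means 50% or more with normal probe brightness, or confirmed in later tests; inconclusive means above 50% with abnormal brightness, or retests that disagree; inactive means below 50% or failed in later tests; about a fifth of its hits are not listed in these tables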;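 further: calls also rest on retests at 20 µM and on dose response follow-up; controls were probe without protein and protein plus probe with vehicle; some compounds called inactive have numbers as strong as hits; many hits fall short of the cut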
Target sequence (P11940 whole entry, looked up): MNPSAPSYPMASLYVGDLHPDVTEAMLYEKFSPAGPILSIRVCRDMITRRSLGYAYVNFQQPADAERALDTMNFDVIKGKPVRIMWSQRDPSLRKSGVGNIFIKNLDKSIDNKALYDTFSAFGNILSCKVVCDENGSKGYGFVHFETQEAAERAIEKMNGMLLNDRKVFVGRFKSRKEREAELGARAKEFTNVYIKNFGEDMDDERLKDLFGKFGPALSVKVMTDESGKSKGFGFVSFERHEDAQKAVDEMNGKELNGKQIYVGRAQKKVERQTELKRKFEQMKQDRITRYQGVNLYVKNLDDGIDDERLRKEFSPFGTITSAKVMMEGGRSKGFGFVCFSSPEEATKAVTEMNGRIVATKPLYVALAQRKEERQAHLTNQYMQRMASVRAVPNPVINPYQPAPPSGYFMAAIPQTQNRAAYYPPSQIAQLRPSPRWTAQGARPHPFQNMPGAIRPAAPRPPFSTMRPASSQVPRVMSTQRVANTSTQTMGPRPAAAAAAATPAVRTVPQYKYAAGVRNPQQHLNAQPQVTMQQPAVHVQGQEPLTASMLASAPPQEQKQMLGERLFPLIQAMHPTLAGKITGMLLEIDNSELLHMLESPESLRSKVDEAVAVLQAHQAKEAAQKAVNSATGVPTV
CSC inhib: cancer stem cell viability inhibitors, primary screen, luminescence; cancer stem cell-like cells viability; inhibition, % at 7.5 µM; 300,000 compounds, 1.1% hits;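 active means mean at 75% or more and at least half the replicates too; inconclusive means mean and replicates disagree; tested in HMLE shEcad cells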;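 further: 0% = median of negative and 100% = median of positive control wells; the first replicate is given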
Rce1 inhib: yeast Rce1p protease inhibitors, primary screen, biochemical, fluorescence, cell-free homogeneous; CAAX prenyl protease 2 (Saccharomyces cerevisiae (strain ATCC 204508 / S288c)), Q03530; yeast membranes, quenched prenylated peptide cleavage fluorescence; calls only; 290,000 compounds, 0.27% hits;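 active means fall in fluorescence gain of 50% or more versus controls, with final raw signal at or below 3038400; inconclusive means same 50% fall but final raw signal above 3038400; inactive means fall in fluorescence gain under 50%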;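 further: plate controls were neutral control wells for no effect and wells lacking membranes for full effect; tested at 10 µM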
Target sequence (Q03530 whole entry, looked up): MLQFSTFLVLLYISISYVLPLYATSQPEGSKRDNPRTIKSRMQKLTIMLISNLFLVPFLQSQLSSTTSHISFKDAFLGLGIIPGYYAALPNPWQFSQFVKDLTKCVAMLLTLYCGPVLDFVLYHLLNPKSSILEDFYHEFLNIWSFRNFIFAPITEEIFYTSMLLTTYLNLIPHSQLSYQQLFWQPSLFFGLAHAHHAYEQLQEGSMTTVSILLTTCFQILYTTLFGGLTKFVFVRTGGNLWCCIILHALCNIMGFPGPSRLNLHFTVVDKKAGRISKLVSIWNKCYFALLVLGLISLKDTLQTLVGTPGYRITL
Env fusion inh: inhibitors of HIV-1 Env-driven cell-cell fusion, primary screen, HeLa-JRFL effector, CEM21 target cells, luciferase; inhibition, % at 12.3 µM; 360,000 compounds, 1.1% hits;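 active means mean replicate inhibition score of at least 50 and every replicate individually at or above 50; inconclusive means only one of the two criteria met; inactive means mean below 50 and not all replicates reaching 50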;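 further: 0% = plate neutral controls and 100% = maraviroc near 300 nM; one replicate is shown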
MT1-MMP act inh: blockers of MT1-MMP proenzyme processing, primary screen, HT1080 RFP-PRO-GFP cells, GFP/RFP fluorescence | Matrix metalloproteinase-14 (Homo sapiens), P50281 | GFP/RFP ratio fluorescence, overnight; percent of plate control window, DMSO zero | GFP/RFP ratio change, % at 20 µM | 360,000 compounds, 0.061% hits | AID 651647, 2012;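 active means GFP/RFP ratio change of at least 30% with cell ATP level not reduced by more than half and red fluorescence within 50% of control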; further: strong numbers were not always called active
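Assay system: HT1080 RFP-PRO-GFP cells | Dosing: 20 µM single dose, 1% DMSO | Incubation: Cells overnight before dosing, compound overnight, 37 °C, 5% CO2 | Evaluation: GFP/RFP fluorescence ratio | Control set: DMSO-only wells and HT1080 RFP-L50D-GFP cell wells as references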
eIF4H inh retest: recorded beside eIF4H inh, whose call it bears; inhibition, %; compound at 20 µM; confirmation average;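 mean of two retest wells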
PABP FP inh retest: also measured in PABP FP inh; calls as there; inhibition, %; compound at 20 µM; confirmation repeats;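 mean of two retest wells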
MT1-MMP act inh RFP: recorded beside MT1-MMP act inh, whose call it bears; RFP signal change, %; measured here: RFP expression control read;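 0 = vehicle wells; hits needed this value within 50% of zero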
Starred values were filed as active, the others as inactive; i = inactive; ? = inconclusive; nt = no result given.

SMILES	UUG fidelity	eIF4H inh	PABP FP inh	CSC inhib	Rce1 inhib	Env fusion inh	MT1-MMP act inh	MT1-MMP act inh RFP	others
Cc1cc(SCC(=O)Nc2ccc3[nH]c(=O)[nH]c3c2)nc2ccccc12	-18	nt	nt	20	nt	-6	-3	1
CSCCC(NC(=O)c1ccccc1Br)C(=O)NCCCn1nc(C)cc1C (stereo unspecified)	nt	nt	nt	-13	i	15	4	4
O=C(NCc1ccccn1)C(=O)NN=C1CCCCCCCCCCC1	-10	-1	-6	-14	i	12	0	1
Cc1ccc(C2=NS(=O)(=O)N(C)C(C(=O)Nc3cc(C)n(CC(=O)N4CCC(C)CC4)n3)=C2)cc1	5	-11	-4	5	i	1	2	-3
CCOC(=O)Cc1csc(NC(=O)CS(=O)(=O)Cc2ccccc2)n1	-6	6	20	-7	i	-13	2	-2
Cc1ccc(S(=O)(=O)Nc2cc(C(=O)NCCN(C)C)ccc2N2CCCC2)cc1	nt	-4	-8	-11	i	-8	1	3
COC(=O)c1ccc(NC(=O)C23CC4CC(C2)CC(n2cnc(Cl)n2)(C4)C3)cc1	-1	8	3	-8	i	-72	5	7
O=C(COC(=O)c1ccc[nH]c1=O)NC1CCCCCC1	nt	3	-17	8	i	3	-7	-11
OC(c1ccc(Cl)c(F)c1)c1ncc(-c2ccccc2F)[nH]1 (stereo unspecified)	-18	nt	nt	nt	nt	31	-1	-10
CCn1c2ccccc2c2cc(NC(=O)c3cc(C)on3)ccc21	-14	2	1	45	i	11	2	-10
O=c1cc(-c2ccccc2)[nH]c2cc(Cl)ccc12	-25	-5	45	4	i	-146	12	-7
COc1ccccc1NC(=S)NCCSc1ccc(Cl)cc1	-21	-1	-10	3	i	16	3	2
Cc1ccc(C(=O)Nc2ccc3c(c2)OCCO3)cc1	-70	4	-4	7	i	-141	0	2
Cc1ccc(CN(C)C(=O)C2CCC(=O)N(CC3CCCCC3)C2)o1 (stereo unspecified)	1	11	14	-2	i	9	-1	3
Cc1ccc2cccc(NC(=O)c3ccc(Br)o3)c2n1	-30	-1	-2	nt	i	-196	-20	-4
COC(=O)C1=C(C)N(c2ccc(Cl)c(Cl)c2)C(=O)C1	-14	13	7	24	i	-18	-12	4
CC(C)c1nnc(NC(=O)CSc2ncn[nH]2)s1	-20	-10	1	-28	i	nt	-8	-3
COc1ccc(Nc2nc(C(C)(C)C)nc3c2nnn3Cc2ccccc2Cl)cc1OC	-9	nt	nt	17	i	nt	-8	-30
CC1CCCN(CCOc2ccc(Br)cc2)C1 (stereo unspecified)	-4	13	-1	22	i	-76	0	4
COc1ccc(OC)c(NC(=O)COC(=O)CN(C)S(=O)(=O)c2ccc(C)cc2)c1	50	-2	1	0	i	0	-2	3
CN1CCN(S(=O)(=O)c2cccc(C(=O)Nc3sccc3C#N)c2)CC1	-8	nt	nt	nt	nt	-11	-31	19
COc1ccc(N(Cc2cc3ccc(C)cc3[nH]c2=O)C(C)=O)cc1	-26	-1	11	1	i	-5	-2	-2
Cc1ccc(-c2nnn(CC(=O)N(Cc3cccs3)C(C(=O)NC3CCCCC3)c3ccco3)n2)o1 (stereo unspecified)	-7	2	-1	3	i	-379	-1	1
O=C(CCC1N=C2c3ccccc3N=C(SCc3ccc(Cl)cc3)N2C1=O)NCc1ccco1 (stereo unspecified)	0	3	2	5	i	-7	4	-3
Cc1cc(-c2ccccc2)n2nc(N)nc2n1	-12	2	7	-5	i	16	0	8
(further entries)
SMILES	UUG fidelity	eIF4H inh	PABP FP inh	CSC inhib	Rce1 inhib	Env fusion inh	MT1-MMP act inh	MT1-MMP act inh RFP	others
COc1ccccc1Oc1ccc(N/C=C/C(=O)C(C)(C)C)cc1	nt	0	4	nt	i	7	-2	2
S=C(NC1CCCC1)N1CCOCC1	nt	-2	-6	-6	nt	-16	-2	-2
CC(=O)Oc1ccc(C(=O)Nc2ccccc2C(=O)Nc2cccc(C(=O)O)c2)cc1	6	6	-12	0	i	-42	-1	-1
Cc1cc(C(=O)COc2cccc3cccnc23)c(C)n1C	-22	109	118	6	i	9	-190	10	eIF4H inh retest=5;PABP FP inh retest=7
O=C(Nc1ccc2c(c1)OCO2)c1cnn2c1NC(c1ccco1)CC2C(F)(F)F (stereo unspecified)	-9	-4	4	-2	i	-60	-3	-4
CCC(=O)Nc1ccc(-c2nnc(SCC(=O)N3CCCCC3)n2C)cc1	1	-2	2	-7	i	?	0	5
N#Cc1ccccc1Cn1c(=O)n(CCCC(=O)NCc2ccc3c(c2)OCO3)c(=O)c2ccccc21	nt	-4	-2	0	i	nt	0	1
CC(=O)C1=C(C)NC(=O)NC1c1ccc(Cl)cc1 (stereo unspecified)	nt	-5	-17	-14	i	9	4	4
O=C(O)c1ccc(-n2[nH]c3c(c2=O)CCCC3)cc1	nt	22	15	7	i	4	9	5
COc1cc(S(=O)(=O)N2CCOCC2)ccc1NC(=O)COC(=O)c1ccccn1	nt	-5	-5	-4	i	nt	2	5
CC1SC(=NC(=O)C(C)N2C(=O)c3ccccc3C2=O)NC1=O (stereo unspecified)	-13	10	-8	-6	i	nt	3	5
Cc1ccc([N+](=O)[O-])c(C(=O)Nc2cccnc2Cl)c1	-10	5	-3	7	i	17	-1	-2
Cc1ccc(N(CC(=O)NCC2CCCO2)C(=O)CCC(=O)Nc2nccs2)cc1 (stereo unspecified)	-13	-9	12	5	i	12	3	3
CCOCCCN1C(=O)C(O)=C(C(C)=O)C1c1cccs1 (stereo unspecified)	-16	nt	nt	-7	i	-54	6	6
Cc1ccc2c(c1)=C(c1sc(N(C)c3ccc(O)cc3)nc1O)C(=O)N=2	-9	0	13	31	i	-18	10	-6
CCOC(=O)c1oc2ccccc2c1NC(=O)CCl	nt	-4	3	2	i	27	0	-1
COc1cccc(/C=N/Nc2ncnc(Cl)c2N)c1O	nt	11	-11	157*	i	55*	-6	-17
CC(C)c1nnc(NC(=O)COC(=O)/C=C/c2ccc([N+](=O)[O-])cc2)s1	5	0	-7	-19	i	1	-5	4
COC(=O)c1cc(OC)c(OC)cc1N1C(=O)CCCC1=O	nt	-4	2	nt	i	nt	-2	1
Cc1ccc(S(=O)(=O)N(C)C)cc1NC(=O)COC(=O)c1cccs1	-6	nt	nt	nt	nt	-7	1	2
COc1ccc(CN(C)CC(=O)NC(=O)NCc2ccccc2)cc1OC	nt	-16	-5	-2	i	8	0	0
CCc1ccc[n+](-c2nc([O-])sc2C=O)c1	4	4	-3	-16	i	9	-2	2
O=C(O)Cc1ccc(NC(=O)Nc2cccc3ccccc23)cc1	-4	-6	-12	-21	i	0	2	2
CCn1c(SCC(=O)C(C)(C)C)nnc1-c1ccccc1OC	-13	-2	8	-18	i	nt	0	2
O=C1CC(c2ccccc2)CC(O)=C1C=NCc1ccc(Cl)c(Cl)c1 (stereo unspecified)	0	-3	-6	3	i	nt	0	3
(further entries)
SMILES	UUG fidelity	eIF4H inh	PABP FP inh	CSC inhib	Rce1 inhib	Env fusion inh	MT1-MMP act inh	MT1-MMP act inh RFP	others
Cc1ccc(Cn2ccc(NC(=O)c3cc(C4CC4)on3)n2)cc1	nt	12	-3	-13	i	-12	-5	-5
CCC1(C)Cc2nc3sc(C(=O)O)c(N)c3cc2CO1 (stereo unspecified)	-20	12*	71*	9	i	nt	-11	-3	eIF4H inh retest=96*;PABP FP inh retest=99*
CCOc1cc(N2CCOCC2)c(OCC)cc1NC(=O)c1ccc(C)cc1	nt	-6	-6	-12	i	-4	6	-1
Cn1cccc1/C=C1/SC(=O)N(CC(=O)N2CCCC2)C1=O	nt	-4	56	-11	i	20	-1	-9	eIF4H inh retest=-3;PABP FP inh retest=2
CCOC(=O)N1CCN(c2cc(=O)n(-c3ccccc3Cl)c(=O)[nH]2)CC1	0	-6	-6	-1	i	-15	-3	3
CC(Sc1nnc(-c2ccncc2)n1C)C(=O)NCC1CCCO1 (stereo unspecified)	-4	nt	nt	3	i	-20	3	3
CC(=O)Nc1cccc(-c2nnc(SCC(=O)n3c4c(c5ccccc53)CCCC4)n2C)c1	5	2	-5	-5	nt	5	1	6
Cc1c(C(=O)OCC(=O)N(C)C2CCS(=O)(=O)C2)oc2ccc(Br)cc12 (stereo unspecified)	-19	19	29	-1	i	15	-3	-7
COC(=O)c1c(-c2cccc(C)c2)csc1N	-13	0	-2	-14	i	nt	19	18
Cc1ccc2nc3c(cc(C(=O)NC4CCCC4)c(=N)n3CCCn3ccnc3)c(=O)n2c1	nt	2	3	7	i	nt	nt	nt
Cc1ccc(O)c(C(=O)c2cnn(-c3ccccc3)c2)c1	-11	-2	10	6	i	nt	-2	-6
CNC(=O)c1[nH]cnc1C(=O)Nc1ccc(C)cc1	-20	9	6	5	i	-23	7	2
CCOc1ccc(-n2c(C)nc(O)c2N=Nc2ccccc2)cc1	nt	-4	-8	-1	i	10	8	-1
CSc1nc(C)c2c(c1C#N)CCCC2	-13	9	-4	-10	i	nt	2	3
Cc1cc(C)c([N+](=O)[O-])cc1-c1ccc(/C=N/c2c(-c3ccco3)nc3ccccn23)o1	nt	?	?	-6	i	-49	-19	-3
O=C(Cn1cnc2c(cnn2-c2ccc(Cl)cc2)c1=O)NCC1CCCO1 (stereo unspecified)	-4	1	1	3	i	nt	4	0
COc1ccc(CNC(=O)Nc2nc(C(N)CCc3ccccc3)cs2)cc1 (stereo unspecified)	-8	nt	nt	nt	nt	-74	1	-4
O=C(NCCc1cccc(Cl)c1)c1cccs1	-18	-3	8	-8	i	-37	1	-6
CC[C@]12c3[nH]c4cc(-c5ccco5)ccc4c3CCN1C(=O)[C@@H](CC(=O)NCc1ccc(OC)c(OC)c1)C[C@@H]2C(=O)N1CCN(C(=O)C2CC2)CC1	1	nt	nt	nt	nt	-29	1	1
Cc1ccc2c(c1)c1nc3ccccc3nc1n2CCN1CCOCC1	-2	-1	23	5	i	-34	5	-2
CC(Oc1ccc(C(=O)NCCc2ccccc2)cc1)C(=O)O (stereo unspecified)	-12	5	10	-9	i	5	3	6
CCc1ccc(-n2c(=O)c3ccccc3n3c(=S)[nH]nc23)cc1	-13	0	6	-7	i	4	3	2
O=C(O)CCc1ccc(NCc2cccc(Oc3ccccc3)c2)cc1	-10	nt	nt	-15	i	-18	nt	nt
Cc1ccc(NC(=O)NC(=O)COc2ccc(Cl)cc2Cl)c(C)c1	7	2	3	-14	i	nt	-3	2
Cc1ccc(CS(=O)(=O)Cc2ccc(C(=O)NCCCN3CCOCC3)o2)cc1	-11	-2	-9	-8	i	nt	nt	nt
CC(C)(C)c1csc(NC(=O)CCc2ccccc2)n1	-10	-2	-1	nt	i	-3	-27	-27
CN1CCN(C(=O)c2ccc3c(c2)NC(=O)C(C)(C)O3)CC1	-16	-4	-11	-11	i	-16	0	1
C=CCn1ccc(O)c(Cc2ccc(Cl)cc2)c1=O	-15	-7	-10	-3	i	14	2	1
Cn1c(=S)n(CCC(=O)O)c2ccccc21	-13	-6	-3	3	i	2	3	7
